# YB-1 expr inh – YB-1 expression inhibition; U2OS, qRT-PCR YB-1 vs CDIP delta delta Cp, 16 h; active compounds read high; zero = DMSO, each unit about twofold; delta delta Cp (YB-1 minus CDIP) (no concentration beside the values); 30,000 compounds, 0.37% hits;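 active = delta delta Cp rounded down to an integer at or above 3, about 3 SD of DMSO wells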;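 also: higher means less YB-1 transcript or more CDIP transcript relative to DMSO; stock transfer was 100 nL into about 100 µL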
# PD-1 reversal – reversal of PD-1 mediated T-cell inhibition. primary human CD4 T cells, PD-L1 beads, CellTiter-Glo 96 h. activation, % (concentration not given with the values). 29,000 tested, under 10 active. AID 2316;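 active = replicate mean of 50% or more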;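 also: 0% = median vehicle wells and 100% = positive control; 100 nL library stock added to about 50 µL; numbers are from one replicate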
# MITF inhib – inhibitors of MITF; TRPM1 promoter luciferase, luminescence, 24 h; inhibition, % (test concentration not listed); 37,000 compounds, 0.28% hits;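 active = most replicates at 85% or more, or half of them and the mean; inconclusive = half reach 85% but not the mean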;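 also: human melanocyte line stably carrying TRPM1 promoter luciferase reporter; 0% = vehicle wells and 100% = a positive control; the first replicate is given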
# Shh pathway inh – Sonic Hedgehog pathway inhibition | 22,000 compounds, 2.1% hits | Shh-LIGHT2 Gli-luciferase reporter, 30 h | inhibition, % (no concentration beside the values);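 active = replicate mean of 65% or more; inconclusive = mean lower but half the replicates past it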;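 also: pathway switched on by Shh-conditioned medium diluted 1 in 25 in low serum; 100 nL library stock added to about 40 µL; 0% = median of neutral wells and 100% = positive control level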
# Starred values were filed as active, the others as inactive; ? = inconclusive; / = no result given. Only part of the results is shown, so the mix of outcomes need not match the whole.
# Short keys – A = YB-1 expr inh; B = PD-1 reversal; C = MITF inhib; D = Shh pathway inh
canonical_smiles: COc1ccc(NC(=O)Nc2ccc3c(c2)C(=O)N([C@H](C)CO)C[C@@H](C)[C@@H](CN(C)Cc2ccc(C(=O)Nc4ccccc4N)cc2)O3)cc1
  A = 0.56 | B = -1.3 | C = -22 | D = /
canonical_smiles: C[C@H]1CN([C@@H](C)CO)C(=O)c2cc(NC(=O)Nc3ccc(C(F)(F)F)cc3)ccc2O[C@@H]1CN(C)C(=O)Nc1ccc2c(c1)OCO2
  A = 0.11 | B = -1.6 | C = 10 | D = -8
canonical_smiles: N#Cc1ccc(NC(=O)CSc2ccc([N+](=O)[O-])cn2)cc1
  A = / | B = -0.1 | C = -6 | D = /
canonical_smiles: COc1c(O)cc2occ(-c3ccccc3O)c(=O)c2c1O
  A = 0.012 | B = 2.0 | C = 16 | D = -5
canonical_smiles: Cc1noc(C)c1S(=O)(=O)Nc1cccc2c1O[C@@H](CN(C)CC1CC1)[C@@H](C)CN([C@H](C)CO)C2=O
  A = 0.2 | B = 1.8 | C = 4 | D = -16
canonical_smiles: COc1ccc(S(=O)(=O)Nc2ccc3c(c2)CC(=O)N([C@H](C)CO)C[C@H](C)[C@H](CN(C)CC2CCCCC2)O3)cc1
  A = 0.032 | B = 2.0 | C = -7 | D = 38
canonical_smiles: C[C@@H]1CCCCO[C@@H](CN(C)CC2CCCCC2)[C@@H](C)CN([C@H](C)CO)C(=O)c2cc(NC(=O)Nc3ccc(C(F)(F)F)cc3)ccc2O1
  A = -0.28 | B = -4.2 | C = -11 | D = /
canonical_smiles: O=C(CC1NC(=O)NC1=O)Nc1cccc(C(F)(F)F)c1 (stereo not given)
  A = / | B = 1.9 | C = -9 | D = /
canonical_smiles: C[C@H](CO)N1C[C@H](C)[C@H](CN(C)Cc2ccc(C(=O)O)cc2)Oc2ccc(NC(=O)CCC(F)(F)F)cc2CC1=O
  A = 0.05 | B = 0.8 | C = 2 | D = -14
canonical_smiles: Nc1nc(SCC(=O)c2ccc(Cl)cc2Cl)n[nH]1
  A = / | B = -2.8 | C = -30 | D = /
canonical_smiles: C[C@H](CO)N1C[C@H](C)[C@@H](CN(C)Cc2ccc(-c3ccccc3)cc2)Oc2c(NS(=O)(=O)c3cccs3)cccc2C1=O
  A = 0.27 | B = 1.8 | C = 0 | D = -109
canonical_smiles: Cc1cc(C(=O)Nc2cccc3c2O[C@@H](CN(C)S(=O)(=O)c2cccs2)[C@@H](C)CN([C@@H](C)CO)C3=O)n(C)n1
  A = 0.72 | B = -2.3 | C = -12 | D = 6
canonical_smiles: C[C@@H]1CCCCO[C@@H](CN(C)C(=O)CCCN(C)C)[C@@H](C)CN([C@H](C)CO)C(=O)c2cc(NC(=O)CCC(F)(F)F)ccc2O1
  A = -0.14 | B = -0.4 | C = 8 | D = /
canonical_smiles: C[C@H](CO)N1C[C@H](C)[C@H](CN(C)Cc2ccc(C(F)(F)F)cc2)Oc2c(NC(=O)c3cnccn3)cccc2C1=O
  A = 0.29 | B = / | C = -27 | D = 13
canonical_smiles: Cc1noc(C)c1S(=O)(=O)Nc1ccc2c(c1)CC(=O)N([C@H](C)CO)C[C@@H](C)[C@@H](CN(C)Cc1ccc(Cl)c(Cl)c1)O2
  A = 0.19 | B = -1.3 | C = -13 | D = 39
canonical_smiles: CC(C)NC(=O)Nc1ccc2c(c1)CC(=O)N([C@@H](C)CO)C[C@H](C)[C@H](CN(C)Cc1ccc(Oc3ccccc3)cc1)O2
  A = -0.068 | B = / | C = -25 | D = ?
canonical_smiles: COc1ccc(CN(C)C[C@@H]2Oc3ccc(NC(=O)Cc4ccccc4)cc3C(=O)N([C@@H](C)CO)C[C@H]2C)cc1
  A = 0.087 | B = / | C = -10 | D = 10
canonical_smiles: COc1ccc(NC(=O)Nc2ccc3c(c2)C(=O)N([C@H](C)CO)C[C@H](C)[C@H](CN(C)S(=O)(=O)c2ccc(Cl)cc2)OCCCC[C@@H](C)O3)cc1
  A = 0.2 | B = -2.6 | C = 3 | D = -4
canonical_smiles: C[C@H](CO)N1C[C@H](C)[C@H](CN(C)S(=O)(=O)c2ccccc2)Oc2ccc(NC(=O)c3ccncc3)cc2CC1=O
  A = 0.85 | B = -0.2 | C = -1 | D = -5
canonical_smiles: Cc1ccc(S(=O)(=O)Nc2ccc3c(c2)C(=O)N([C@H](C)CO)C[C@H](C)[C@@H](CN(C)Cc2ccc(C(=O)O)cc2)O3)cc1
  A = -0.18 | B = 0.5 | C = 1 | D = -28
canonical_smiles: Cc1noc(C)c1NC(=O)N(C)C[C@@H]1OCCCC[C@@H](C)Oc2ccc(NC(=O)CCCCCC(=O)Nc3ccccc3N)cc2C(=O)N([C@H](C)CO)C[C@@H]1C
  A = -0.48 | B = -0.7 | C = -19 | D = /
canonical_smiles: CNC[C@H]1Oc2ccc(NS(=O)(=O)c3ccc(Cl)cc3)cc2CC(=O)N([C@@H](C)CO)C[C@H]1C
  A = -0.066 | B = 1.7 | C = -2 | D = -41
canonical_smiles: Cc1noc(C)c1S(=O)(=O)Nc1ccc2c(c1)C(=O)N([C@H](C)CO)C[C@@H](C)[C@@H](CN(C)S(=O)(=O)c1ccc(F)cc1)O2
  A = -0.4 | B = -0.7 | C = 0 | D = 17
canonical_smiles: C[C@@H]1CCCCO[C@@H](CN(C)C(=O)Nc2ccc(C(F)(F)F)cc2)[C@@H](C)CN([C@H](C)CO)C(=O)c2cc(NC(=O)Nc3ccc(F)cc3)ccc2O1
  A = -0.14 | B = -3.0 | C = 7 | D = -1
canonical_smiles: C[C@@H]1CCCCO[C@H](CN(C)Cc2ccccc2)[C@@H](C)CN([C@H](C)CO)C(=O)c2cc(NC(=O)Nc3ccc4c(c3)OCO4)ccc2O1
  A = 0.028 | B = -1.7 | C = 1 | D = -12
canonical_smiles: O=C(CSc1n[nH]c(-c2ccc(Cl)cc2Cl)n1)Nc1cc(C(F)(F)F)ccc1Cl
  A = / | B = -0.2 | C = 41 | D = /
canonical_smiles: COc1cc2c(cc1OC)-c1c(C#N)c(-c3ccc(C)cc3)c(C(=O)c3cccs3)n1CC2
  A = 0.1 | B = 1.1 | C = -10 | D = /
canonical_smiles: Cc1noc(C)c1NC(=O)Nc1ccc2c(c1)C(=O)N([C@@H](C)CO)C[C@H](C)[C@@H](CN(C)S(=O)(=O)c1cccs1)O2
  A = 0.038 | B = / | C = 2 | D = -17
canonical_smiles: C[C@H](CO)N1C[C@H](C)[C@@H](CN(C)C(=O)Nc2ccc(F)cc2)Oc2c(NS(=O)(=O)c3ccc(Cl)cc3)cccc2C1=O
  A = 0.0094 | B = 0.8 | C = 2 | D = -7
canonical_smiles: C[C@H](CO)N1C[C@H](C)[C@@H](CN(C)C(=O)NC2CCCCC2)Oc2c(NC(=O)Nc3ccc(F)cc3)cccc2C1=O
  A = -0.053 | B = -0.2 | C = -4 | D = -34
canonical_smiles: CNC[C@@H]1Oc2ccc(NS(=O)(=O)c3ccc(F)cc3)cc2C(=O)N([C@H](C)CO)C[C@@H]1C
  A = 0.14 | B = / | C = -12 | D = /
canonical_smiles: Cc1ccc(S(=O)(=O)N(C)C[C@H]2Oc3ccc(NC(=O)CCCCCC(=O)Nc4ccccc4N)cc3C(=O)N([C@H](C)CO)C[C@H]2C)cc1
  A = 0.1 | B = 0.6 | C = 8 | D = /
canonical_smiles: C[C@H]1CN([C@@H](C)CO)C(=O)Cc2cc(NS(=O)(=O)c3ccccc3)ccc2O[C@H]1CN(C)Cc1ccc(C(F)(F)F)cc1
  A = 0.42 | B = -0.4 | C = -2 | D = -11
canonical_smiles: C[C@H](CO)N1C[C@H](C)[C@@H](CN(C)S(C)(=O)=O)Oc2ccc(NC(=O)CCC(F)(F)F)cc2C1=O
  A = 0.12 | B = 1.2 | C = -3 | D = -24
canonical_smiles: CCn1c(CSc2nc3ccccc3[nH]2)n[nH]c1=S
  A = / | B = 2.7 | C = -13 | D = /
canonical_smiles: Cc1ccc(N(CC(N)=O)S(=O)(=O)c2ccc(F)cc2)cc1
  A = / | B = 1.4 | C = -3 | D = /
canonical_smiles: C[C@@H]1CN([C@H](C)CO)C(=O)c2cccc(NS(C)(=O)=O)c2O[C@@H]1CN(C)CC1CC1
  A = 0.19 | B = / | C = -2 | D = 24
canonical_smiles: COc1ccc(NC(=O)N(C)C[C@H]2Oc3c(NC(=O)Nc4ccc(C(F)(F)F)cc4)cccc3C(=O)N([C@H](C)CO)C[C@@H]2C)cc1
  A = -0.62 | B = -5.2 | C = -4 | D = -4
canonical_smiles: CCOC(=O)c1c(/N=C/c2ccccc2O)sc(C)c1C
  A = 0.18 | B = 0.5 | C = -7 | D = /
canonical_smiles: Cc1c(Br)c([N+](=O)[O-])nn1CC(=O)Nc1sc2c(c1C#N)CCC2
  A = / | B = -2.0 | C = 9 | D = /
canonical_smiles: C[C@H]1CN([C@@H](C)CO)C(=O)Cc2cc(NC(=O)Cc3cn(C)c4ccccc34)ccc2O[C@H]1CN(C)C(=O)Nc1ccccc1
  A = 0.05 | B = 0.3 | C = 2 | D = 25
canonical_smiles: C[C@@H]1CN([C@H](C)CO)C(=O)Cc2cc(NS(=O)(=O)c3ccc(F)cc3)ccc2O[C@H]1CN(C)C
  A = 0.31 | B = 2.3 | C = -13 | D = 4
canonical_smiles: Nc1nnc(SC2c3cccc4cccc(c34)C2NS(=O)(=O)c2ccc(Cl)cc2)s1 (stereo not given)
  A = / | B = -0.8 | C = 29 | D = /
canonical_smiles: C[C@H]1CN([C@@H](C)CO)C(=O)c2cccc(NC(=O)C3CC3)c2O[C@H]1CN(C)Cc1ccncc1
  A = -0.21 | B = 0.9 | C = 4 | D = -17
canonical_smiles: O=C(NCCCn1ccnc1)c1ccc(Cl)c(Cl)c1
  A = / | B = 0.3 | C = 6 | D = /

# Of the compounds above, these contain a cyano group.
# Short keys – A = YB-1 expr inh; B = PD-1 reversal; C = MITF inhib; D = Shh pathway inh
canonical_smiles: N#Cc1ccc(NC(=O)CSc2ccc([N+](=O)[O-])cn2)cc1
  A = / | B = -0.1 | C = -6 | D = /
canonical_smiles: COc1cc2c(cc1OC)-c1c(C#N)c(-c3ccc(C)cc3)c(C(=O)c3cccs3)n1CC2
  A = 0.1 | B = 1.1 | C = -10 | D = /
canonical_smiles: Cc1c(Br)c([N+](=O)[O-])nn1CC(=O)Nc1sc2c(c1C#N)CCC2
  A = / | B = -2.0 | C = 9 | D = /

# Next results.
# Short keys – A = YB-1 expr inh; B = PD-1 reversal; C = MITF inhib; D = Shh pathway inh
canonical_smiles: COc1ccc(S(=O)(=O)Nc2ccc(Br)c3cccnc23)c([N+](=O)[O-])c1
  A = / | B = -8.5 | C = 54 | D = /
canonical_smiles: O=C(CSc1nnc(-c2ccccc2O)n1-c1ccccc1)Nc1cccc(C(=O)O)c1
  A = / | B = 3.4 | C = -36 | D = /
canonical_smiles: O=CNc1nonc1NC(=O)c1ccccc1Cl
  A = -0.37 | B = 0.0 | C = 0 | D = -43
canonical_smiles: C[C@H]1CN([C@@H](C)CO)C(=O)Cc2cc(NC(=O)C3CCCCC3)ccc2O[C@@H]1CN(C)C(=O)Nc1ccc2c(c1)OCO2
  A = -0.076 | B = 0.7 | C = -2 | D = -24
canonical_smiles: C[C@H](CO)N1C[C@H](C)[C@H](CN(C)S(C)(=O)=O)Oc2c(NC(=O)C3CC3)cccc2C1=O
  A = -0.036 | B = / | C = -3 | D = -33
canonical_smiles: C[C@H](CO)N1C[C@H](C)[C@H](CN(C)Cc2ccccc2)Oc2ccc(NC(=O)C3CCCCC3)cc2CC1=O
  A = -0.3 | B = 0.3 | C = -3 | D = /
canonical_smiles: Cc1noc(C)c1NC(=O)Nc1cccc2c1O[C@@H](CN(C)Cc1ccccc1)[C@H](C)CN([C@@H](C)CO)C2=O
  A = -0.32 | B = -0.9 | C = -4 | D = -4
canonical_smiles: C=C1C(C2(C)C=CC(=O)C(C)(C)C2CC(=O)OC)CC[C@@]2(C)[C@H](c3ccoc3)OC(=O)C3OC132 (stereo not given in full)
  A = 0.62 | B = / | C = 66 | D = ?
canonical_smiles: Cc1ccc(S(=O)(=O)Nc2ccc3c(c2)C(=O)N([C@H](C)CO)C[C@H](C)[C@@H](CN(C)Cc2ccncc2)O3)cc1
  A = 0.14 | B = 0.1 | C = -7 | D = /
canonical_smiles: Cc1sc(NC(=O)COc2ccccc2)c(C(N)=O)c1-c1ccccc1
  A = / | B = -0.4 | C = -6 | D = /
canonical_smiles: N#Cc1c(-c2ccccc2)nc(SCCN2C(=O)c3ccccc3C2=O)[nH]c1=O
  A = / | B = 1.1 | C = 1 | D = /

# 4 entries drawn at random from those above, as already listed:
# Short keys – A = YB-1 expr inh; B = PD-1 reversal; C = MITF inhib; D = Shh pathway inh
canonical_smiles: C=C1C(C2(C)C=CC(=O)C(C)(C)C2CC(=O)OC)CC[C@@]2(C)[C@H](c3ccoc3)OC(=O)C3OC132 (stereo not given in full)
  A = 0.62 | B = / | C = 66 | D = ?
canonical_smiles: O=CNc1nonc1NC(=O)c1ccccc1Cl
  A = -0.37 | B = 0.0 | C = 0 | D = -43
canonical_smiles: Cc1sc(NC(=O)COc2ccccc2)c(C(N)=O)c1-c1ccccc1
  A = / | B = -0.4 | C = -6 | D = /
canonical_smiles: O=C(CSc1nnc(-c2ccccc2O)n1-c1ccccc1)Nc1cccc(C(=O)O)c1
  A = / | B = 3.4 | C = -36 | D = /
